Screens as filed in PubChem.
ERK AVP block = inhibitors of vasopressin-stimulated ERK signaling pathway | HEK293-V1b, vasopressin-stimulated pERK AlphaScreen | Potency, µM (doses to about 57.5 µM), without a hit: at the highest dose activity, negative = inhibition, most hits filed as inhibitors | 0.99% of 72,000 active | AID 995; note: potency is the fitted concentration of half-maximal effect; % is set by controls: 0 for no effect and ±100 for the full control effect; nearly all actives have a fitted effect of over 55% in size
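HEK293 cells stably expressing V1b receptor, seeded overnight in 1% FBS, were treated with compounds for 30 min at 37C, then stimulated 5 min with 25 nM vasopressin; phospho-ERK read by AlphaScreen SureFire after lysis.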
HBB splicing = modulators of hemoglobin beta chain splicing. HBB splicing reporter cell assay, activation; EGFP reporter with mutant IVS2-654 intron; response scale: normalised to 500 nM splice-correcting PNA. Potency, µM (highest dose often 46.1 µM), inactives show at the top dose activation, most hits filed as activators. 0.06% of 65,000 active. AID 925; note: potency is the fitted concentration of half-maximal effect; 0% is about no effect
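HeLa cells stably expressing EGFP interrupted by mutant beta-globin intron 2 (IVS2-654), 500/well in 2% FCS. Treated with compound for 2 days at 37C. Splicing correction scored as total well GFP intensity (488 nm excitation, 500-520 nm emission); 500 nM antisense PNA served as control.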
Epigenetic mod = epigenetic modulators derepressing GFP locus in mouse cells; Potency, µM (doses to about 46.1 µM), inactives show at the highest dose GFP derepression (activation); 0.09% of 68,000 active; mouse C127i GFP locus derepression, cytometry, 30 h; note: % of control where 0% means no effect
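Locus derepression in mouse mammary C127i cells whose integrated CMV-GFP reporter is normally silent; GFP expression after 30 h compound treatment was quantified by counting fluorescent cells.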
Tau filament bind = binds recombinant human tau filaments. 2% of 71,000 active. Potency, µM (highest dose often 57.1 µM), inactives show at the highest dose activity change, negative = inhibition. recombinant tau filaments, thioflavin S fluorescence, 15 h; filaments grown with octadecylsulfate alongside compound. P10636;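 note: potency is the fitted concentration of half-maximal effect; % is set by controls: 0 for no effect and ±100 for the full control effect; actives lower thioflavin S fluorescence by blocking filaments or displacing dye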
Target sequence (P10636 whole entry, looked up): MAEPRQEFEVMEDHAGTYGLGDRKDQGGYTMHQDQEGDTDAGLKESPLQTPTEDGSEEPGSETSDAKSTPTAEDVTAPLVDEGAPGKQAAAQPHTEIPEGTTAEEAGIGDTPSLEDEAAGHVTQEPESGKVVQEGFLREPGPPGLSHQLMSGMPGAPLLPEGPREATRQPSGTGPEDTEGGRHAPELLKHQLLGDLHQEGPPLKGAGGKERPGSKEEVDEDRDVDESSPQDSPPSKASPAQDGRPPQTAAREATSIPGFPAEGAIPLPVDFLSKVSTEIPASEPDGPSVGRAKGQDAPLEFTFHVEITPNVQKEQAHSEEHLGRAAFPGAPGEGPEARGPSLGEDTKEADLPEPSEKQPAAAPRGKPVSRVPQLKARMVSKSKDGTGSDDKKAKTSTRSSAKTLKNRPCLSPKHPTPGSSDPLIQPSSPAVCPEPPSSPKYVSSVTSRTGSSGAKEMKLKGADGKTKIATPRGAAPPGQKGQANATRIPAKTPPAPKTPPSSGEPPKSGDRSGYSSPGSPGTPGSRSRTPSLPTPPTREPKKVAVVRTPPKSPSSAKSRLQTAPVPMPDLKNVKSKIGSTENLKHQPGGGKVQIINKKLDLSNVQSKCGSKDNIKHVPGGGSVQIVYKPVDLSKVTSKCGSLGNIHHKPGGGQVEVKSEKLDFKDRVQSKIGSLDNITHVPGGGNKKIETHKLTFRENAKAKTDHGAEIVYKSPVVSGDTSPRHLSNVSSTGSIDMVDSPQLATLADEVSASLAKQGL
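Tau 2 uM in ThS buffer dispensed; compound added; 60 uM ODS added (finals 1 uM tau, 30 uM ODS); 15 h 37 C; fluor ex450/em510.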
Ub-GFP proteasome = ubiquitin-GFP accumulation via proteasome inhibition | Ubiquitin-GFP reporter cells, proteasome inhibition, GFP fluorescence; response scale: untreated = 0%, 10 µM MG-132 = 100% | Potency, µM (highest dose often 45.9 µM), without a hit: at the top dose activation (GFP accumulation), actives largely listed as activators | 67,000 tested, under 10 active | AID 526; active = well fitted activation curve with a large enough effect, not every such curve was filed as active; inconclusive = small, poorly fitted or top-dose-only effect, or another doubt; inactive = no such curve, though single readings can be large or run the other way; note: potency is the fitted concentration of half-maximal effect
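GFP accumulation read-out: laser plate cytometry counting ubiquitin(G76V)-GFP-expressing U2OS cells after 4 hr compound exposure at 37 °C. Titrations spanned 46 uM to 2.9 nM; 0% = basal, 100% = 10 uM MG-132; concentration-response curves fitted.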
FLuc inh = blocks Photinus pyralis firefly luciferase activity; purified firefly luciferase, luminescence, 8 min; Potency, µM (series often up to 57.1 µM), inactives show top-dose activity change, negative = inhibition, hits mostly inhibitors; 2.2% of 72,000 active; AID 411; note: potency is the fitted concentration of half-maximal effect; % is set by controls: 0 for no effect and ±100 for the full control effect; nearly all actives have a fitted effect of over 40% in size
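Firefly luciferase (PKLight detection mix) with 10 uM ATP in pH 7.2 imidazole buffer (KCl, MgCl2, Tween 20, BSA). Compounds tested across a concentration series (qHTS). Luminescence read after 8 min at ambient temperature.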
Pol III holo inh = inhibitors of bacterial DNA polymerase III holoenzyme; reconstituted DNA polymerase III holoenzyme replication, biochemical; Potency, µM (doses to about 57.1 µM), for the others: top-dose activity change, negative = inhibition; 0.25% of 71,000 active; AID 603; note: potency is the fitted concentration of half-maximal effect; % is set by controls: 0 for no effect and ±100 for the full control effect
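Reconstituted *E. coli* holoenzyme (0.35 nM Pol III, 1 nM beta, 154 nM SSB, 2 nM primase) was preincubated with compound for 15 min at RT. Synthesis on 1.4 nM ssM13Gori ran 35 min, then was stopped with PicoGreen/EDTA and read as dsDNA fluorescence.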
CRE Fsk mod = alters forskolin-stimulated CRE reporter signaling in CHO cells | CHO CRE-bla reporter (cAMP response element driving beta-lactamase), forskolin EC10, beta-lactamase ratio | Potency, µM (series often up to 38.2 µM), for inactives: at the top dose activity change, negative = inhibition, hits mostly activators | 2.5% of 71,000 active; active = well fitted activation curve with a large enough effect in the signal ratio, with a control signal flat, not every such curve was filed as active; inconclusive = small, poorly fitted or top-dose-only effect, or effect the other way, or a change in a side signal; the % refers to the signal ratio; note: potency is the fitted concentration of half-maximal effect; % of control where 0% means no effect
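Beta-lactamase reporter under a cAMP responsive element in CHO cells; compounds tested in titration series against EC10 NKH 477, 3 h at 37 °C. Read-out: CCF4 FRET ratio 460nm/530nm (excitation 405nm) giving %Activity, fitted to AC50.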
ALOX15 inhib = 15-hLO (ALOX15) enzyme inhibition | Potency, µM (top dose mostly 57.1 µM), inactives show top-dose activity change, negative = inhibition, hits mostly inhibitors | 1.4% of 74,000 active | purified 15hLO-1, xylenol orange hydroperoxide absorbance | AID 887; note: potency is the fitted concentration of half-maximal effect; % is set by controls: 0 for no effect and ±100 for the full control effect; nearly all actives have a fitted effect of over 55% in size
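Quantitative HTS in 25 mM Hepes pH 7.5 containing 0.01% Triton X-100: human 15hLO-1 at 40 nM, arachidonic acid at 50 uM, 6 min turnover. Product quantified via ferrous oxidation/xylenol orange, 573:405 nm absorbance ratio.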
HADH2 inh = inhibitors of human HADH2 dehydrogenase | Potency, µM (titrated, usually from 57.1 µM), for inactives: at the highest dose activity change, negative = inhibition, hits mostly inhibitors | 3.4% of 73,000 active | Q99714 | recombinant HADH2, NADH fluorescence, beta-hydroxybutyryl-CoA; note: potency is the fitted concentration of half-maximal effect; % is set by controls: 0 for no effect and ±100 for the full control effect; nearly all actives have a fitted effect of over 60% in size; many of its hits are not listed in these tables
Target sequence (Q99714 whole entry, looked up, one chain of several): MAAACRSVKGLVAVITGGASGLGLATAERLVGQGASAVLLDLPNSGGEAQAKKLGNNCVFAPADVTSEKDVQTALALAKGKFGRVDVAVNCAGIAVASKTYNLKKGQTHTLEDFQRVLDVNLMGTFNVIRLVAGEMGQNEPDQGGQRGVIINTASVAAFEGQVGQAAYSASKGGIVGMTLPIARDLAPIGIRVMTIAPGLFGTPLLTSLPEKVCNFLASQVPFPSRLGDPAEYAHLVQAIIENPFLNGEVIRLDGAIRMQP
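Buffer 100 mM Tris-HCl pH 9.0/0.01% Tween-20; HADH2 20 nM; NAD+ 1 mM; beta-hydroxybutyryl-CoA 90 uM (all final). 15 min cpd preincubation, RT.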
* hit, by the source's call; i = inactive; u = inconclusive; x = no result given; [ ] = dose if it differs, or a comment. Unless noted, calls come from the whole dose curve; as a rule, active = well fitted curve in the direction sought with a large enough effect; inconclusive = small, poorly fitted or top-dose-only effect, or another doubt; inactive = no such curve, though single readings can be large; an effect the other way counts as inactive or inconclusive.

SMILES	ERK AVP block	HBB splicing	Epigenetic mod	Tau filament bind	Ub-GFP proteasome	FLuc inh	Pol III holo inh	CRE Fsk mod	ALOX15 inhib	HADH2 inh
O=C(NCCCn1ccnc1)Nc1cccc(Cl)c1	-4%	-0.2%	8%	-6%	8%	1%	-1%	-3%	7%	-11%
O=C(NCc1ccccn1)C1CCCN(S(=O)(=O)c2ccccc2)C1 (configuration not stated)	-6%	1.2%	2%	-1%	5%	0%	-11%	-3%	3%	-2%
COc1ccc(/C(C)=N\n2cnnc2)cc1	-3%	11%	-2%	13%	-9%	2%	-1%	-1%	9%	-5%
Cc1ccc(Nc2nc(N)nc(CN3CCCCCC3)n2)c(C)c1	u	1.1%	-4%	5%	5%	0%	-3%	-1%	u	4%
O=C(Nc1nc(-c2ccncc2)cs1)c1ccc(S(=O)(=O)N2CCOCC2)cc1	4%	-0.8%	u	78%	6%	-1%	-5%	9%	6%	2%
CC1NC(=O)NC1CCCCC(=O)O (configuration not stated)	-19%	0.6%	0%	-1%	-3%	-4%	-2%	1%	-3%	-1%
CCCc1cc(-c2[nH]ncc2-c2ccc3c(c2)OCCCO3)c(O)cc1O	u	2.5%[1.84 µM]	4%	u	11%	3%	5%	u	u	-19%
c1ccc(-c2nnc(Cn3c4ccccc4c4nc5ccccc5nc43)o2)cc1	-4%	2.2%	5%	-14%	8%	2%	-4%	u	-5%	15%
COc1ccc(-c2n[nH]c(C(F)(F)F)c2-c2cc3ccccc3o2)c(O)c1	21%	0.0%[57.5 µM]	3%	-16%	1%	2%	-10%	-6%	u	-7%
O=C(Nc1nccs1)C1CCN(S(=O)(=O)c2cnc[nH]2)CC1	17%	-1.8%	-1%	-12%	3%	-2%	2%	6%	-10%	-4%
COc1ccccc1NC(=O)CSc1ccc2nnc(-c3ccccn3)n2n1	x	0.1%	x	u	14%	0%	-8%	6%	4%	u
CCN(CCCNC(=O)C1CCN(S(=O)(=O)c2cnc[nH]2)CC1)c1cccc(C)c1	2%	-1.8%	1%	-6%	-6%	-1%	-10%	2%	-9%	7%
Nc1nc(N)nc(CCCc2nc(N)nc(N)n2)n1	10%[11.5 µM]	1.8%[9.22 µM]	7%[9.22 µM]	0%[11.4 µM]	-8%[9.17 µM]	2%[11.4 µM]	-10%[11.4 µM]	11%[7.6 µM]	3%[11.4 µM]	4%[11.4 µM]
O=C(CNC(=O)c1cc2ccccc2o1)NCc1cccs1	-11%	-1.6%	0%	1%	8%	1%	-1%	u	1%	1%
COc1cc2c(cc1OC)[C@H](c1ccccc1)CN(C)CC2	1%	-0.5%	3%	6%	10%	-7%	-4%	4%	0%	-10%
O=C1CC(c2ccc(F)c(Br)c2)C2=C(CCCC2=O)N1 (configuration not stated)	33%[activator]	-1.3%	0%	421%	-2%	4%	-5%	27%	u	9%
CCn1nc(NC(=O)c2ccncc2)c2cc3cccc(C)c3nc21	-10%	2.7%[57.5 µM]	0%	-21%	-4%	0%	-2%	5µM*	-6%	25%
Fc1ccc(Cn2nnnc2CN2CCN(C3CCCC3)CC2)cc1	7%	0.6%	-4%	0%	0%	2%	-3%	-2%	-3%	10%
O=C(O)CCC(=O)CCC(=O)c1ccc(Cl)cc1	-9%	0.0%[0.0738 µM]	2%	2%[11.4 µM]	1%[9.17 µM]	2%	-8%[11.4 µM]	u	2%[11.4 µM]	-9%[11.4 µM]
C=CCOc1ccc(/C(CC)=N/O)c(OC)c1	-16%	-1.4%	0%	1%	7%	1%	-4%	u	-3%	-4%

Just ALOX15 inhib, Pol III holo inh and HADH2 inh, for some of the entries so far:
canonical_smiles | ALOX15 inhib | Pol III holo inh | HADH2 inh
O=C(NCc1ccccn1)C1CCCN(S(=O)(=O)c2ccccc2)C1 (configuration not stated) | 3% | -11% | -2%
O=C(NCCCn1ccnc1)Nc1cccc(Cl)c1 | 7% | -1% | -11%

The list goes on.
SMILES	ERK AVP block	HBB splicing	Epigenetic mod	Tau filament bind	Ub-GFP proteasome	FLuc inh	Pol III holo inh	CRE Fsk mod	ALOX15 inhib	HADH2 inh
O=C(CN1CCC(NC(=O)c2ccc(F)cc2)CC1)NCc1ccccc1F	8%	0.0%[57.5 µM]	0%	0%	0%	-15%	2%	-4%	10%	-1%
CC(NC(=O)c1ccc(Cl)cc1)C(=O)NC1=NCCS1 (configuration not stated)	6%	0.4%	4%	-5%	7%	1%	2%	4%	-5%	6%
O=C(NCc1cccs1)C1CCC(CNS(=O)(=O)c2ccc(Br)s2)CC1 (configuration not stated)	9%	-0.7%	6%	i	-4%	2%	4%	u	-11%	1%
Brc1ccc2nc(CSc3ncn[nH]3)cn2c1	2%	-0.7%	3%	-4%	2%	25µM*	-6%	-8%	21%	-10%
CN1CC(=O)NC1=NC(=O)c1ccc(Cl)c(S(=O)(=O)N2CCCCCC2)c1	-7%	3.5%	1%	2%	-5%	3%	-9%	u	31%[activator]	1%
CC1CN(c2nc3ccccc3nc2C(C#N)C(=O)NC2CCCCC2)CC(C)O1 (configuration not stated)	14%	0.5%[0.369 µM]	4%	-11%	x	0%	0%	u	5%	14%
CC(=O)NCC1=C(NC(C)=O)C2CC1C(C)(C)C2C (configuration not stated)	-22%	-0.1%	-5%	3%	-4%	0%	-4%	2%	4%	6%
CCOc1ccc(-c2nnc(SCC(=O)N(CC)CC)n2N)cc1	1%	6.1%[1.84 µM]	-3%	-1%	4%	1%	2%	38%	7%	6%
COc1ccc(CC(=O)Nc2nc3n(n2)C(c2ccccc2)CC(=O)N3)cc1OC (configuration not stated)	0%	3.8%	0%	1%	4%	3%	-2%	-20%	2%	-22%
CS(=O)(=O)N(Cc1ccccc1)c1ccccn1	1%	-3.8%	2%	3%	16%	0%	2%	-2%	3%	1%
Cc1nnc(SCC2CCCO2)n1-c1ccccc1 (configuration not stated)	-5%	x	0%	-9%	0%	2%	-4%	-3%	0%	1%
Cc1cc2cc(C(c3nnnn3Cc3ccco3)N3CCc4ccccc43)c(=O)[nH]c2cc1C (configuration not stated)	0%	-0.3%[57.5 µM]	0%	-20%	-2%	-6%	2%	27%	u	-16%
c1ccc2c(SCc3cn4cccnc4n3)ncnc2c1	17%	0.7%[57.5 µM]	-4%	-4%	-4%	-1%	2%	u	2%	u
NC(=O)c1ccc(-n2nnnc2Oc2ccccc2C(=O)N2CCOCC2)cc1	-5%	-1.6%	-3%	-7%	3%	-1%	4%	-2%	4%	4%
CCSc1nnc2c(n1)[nH]c1c(C)cccc12	u	-1.6%[9.22 µM]	2%	-14%	-8%	-17%	-11%	u	-28%	4%
Cc1ccc(-c2[nH]n3c(=O)c4c(nc3c2C)CCCC4)cc1	-7%	x	-4%	-3%	-5%	2%	-4%	12%	-3%	u
COC(=O)c1cn(NC(=O)c2cnccn2)c(=O)c2ccccc12	21%	0.1%	1%	-5%	16%	2%	-5%	u	45%[activator]	-14%
O=C1CC(c2ccccc2)n2nc(NC(=O)c3cccs3)nc2N1 (configuration not stated)	-5%	-0.2%[57.5 µM]	-2%	-7%	-2%	-2%	2%	-9%	11%	15%
Nc1nc(CN2CCN(Cc3ccccc3)CC2)nc(Nc2ccc3c(c2)OCCO3)n1	-15%	0.2%[57.5 µM]	0%	-3%	4%	1%	-3%	1%	15%	4%
O=C(NCc1ccccc1)c1cc(=O)nc2sc(-c3ccccc3)nn12	-13%	-0.3%	3%	u	3%	-1%	-12%	-20%	2%	-20%
CCOc1ccccc1-n1c(SCC(=O)N(C(C)C)C(C)C)nnc1-c1cccnc1	-3%	-1.3%	3%	8%	2%	0%	-3%	-12%	-4%	5%
Cc1ccc(S(=O)(=O)N2CCCC(C(=O)NCc3ccccn3)C2)cc1 (configuration not stated)	-18%	-0.7%	0%	94%	-5%	-2%	6%	-14%	-5%	6%
Cc1cccc(-n2cnc3cc(C(=O)N4CCCCC4)ccc32)c1	-1%	4.0%[57.5 µM]	0%	-11%	3%	-16%	-1%	u	3%	0%
Cc1csc(OCc2ccc(C#N)cc2)n1	11%	-3.7%	3%	-2%	6%	2%	0%	u	9%	9%
CCCCC#Cc1ccccc1CC(=O)Nc1ccccc1	-12%	-1.1%	x	7%	x	x	-4%	1%	x	-19%
CCCC12CN(C(=O)c3ccc(OC)cc3)CC(C)(CN(C(=O)c3ccc(OC)cc3)C1)C2=O	-2%	0.1%	-2%	17%	6%	-1%	-2%	-3%	2%	0%
O=C(COC(=O)c1ccc(S(=O)(=O)N2CCOCC2)cc1)Nc1nc(-c2ccccc2)cs1	-19%	-8.2%	-2%	9%	-2%	4%	-15%	-2%	-3%	24%

The list is partial; the hit share may differ from the screen's.
